Compound activity deposited in PubChem BioAssay by ICCB-Longwood Screening Facility, Harvard Medical School.
PV pol inh – poliovirus RdRp elongation inhibitors, primary screen, biochemical, fluorescence polarization, total intensity; Genome polyprotein (Poliovirus type 1 (strain Mahoney)), P03300; poliovirus polymerase elongation; active compounds read low; % elongation, % (compound at 16.7 µg/mL); 0.66% of 150,000 active; AID 588519, 2011; in the data active = % elongation below about 90%; also: some results filed as inactive read as strong as hits
Target sequence (P03300 1749-2209 limits assumed): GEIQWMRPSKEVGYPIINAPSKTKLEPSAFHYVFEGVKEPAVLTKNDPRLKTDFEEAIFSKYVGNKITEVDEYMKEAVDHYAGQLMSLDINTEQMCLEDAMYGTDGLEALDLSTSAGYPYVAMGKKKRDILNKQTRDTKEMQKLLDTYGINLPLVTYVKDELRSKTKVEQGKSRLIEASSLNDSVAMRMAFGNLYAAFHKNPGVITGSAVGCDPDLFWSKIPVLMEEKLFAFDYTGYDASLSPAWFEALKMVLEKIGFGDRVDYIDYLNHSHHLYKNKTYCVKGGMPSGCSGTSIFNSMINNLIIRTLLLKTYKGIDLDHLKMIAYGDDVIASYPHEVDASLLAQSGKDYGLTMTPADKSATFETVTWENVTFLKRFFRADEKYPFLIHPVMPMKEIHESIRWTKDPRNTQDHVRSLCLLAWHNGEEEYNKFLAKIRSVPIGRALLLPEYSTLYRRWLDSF
PV pol inh intensity – recorded beside PV pol inh, whose call it bears; % elongation; measured here: total intensity read-out; formula for this scale not given here;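 total fluorescence in place of polarization; lower means less elongation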
* hit, by the source's call.

Each structure is followed by: PV pol inh	PV pol inh intensity
1. Cc1ccccc1C(=O)NC1(C(F)(F)F)N=C(c2ccccc2)N(Cc2ccccc2)C1=O (stereo not given)
 : 105	110
2. CCOc1ccc(-n2c(/C=C/c3ccccc3)nc3ccccc3c2=O)cc1
 : 105	100
3. Cc1ccc(C)c(NC(=O)Cn2cc(S(=O)(=O)Cc3cccc(Cl)c3)c3ccccc32)c1
 : 107	112
4. CCSc1nc(-c2ccccc2)nc2c1Cc1c(CO)cnc(C)c1O2
 : 108	113
5. COc1ccc(NC(=O)CSc2oc(-c3ccc(F)cc3)nc2S(=O)(=O)c2ccc(C)cc2)c(OC)c1
 : 106	108
6. COc1cc2c(cc1OC)C(COc1ccc(C(C)C)cc1)N(C(=O)COc1ccccc1)CC2 (stereo not given)
 : 109	113
7. CCC(C(=O)Nc1cc(C(F)(F)F)ccc1Cl)n1nc(C)c2sc3ccccc3c2c1=O (stereo not given)
 : 118	112
8. CC1CCN(S(=O)(=O)c2cccc(C(=O)NC3CCS(=O)(=O)C3)c2)CC1 (stereo not given)
 : 94	108
9. CCOc1ccc(NC(=O)C(C)n2c(=O)cc(C)c3c(C)nn(-c4ccccc4)c32)cc1 (stereo not given)
 : 109	114
10. Cc1ccccc1OCC(=O)Nc1ccc2[nH]c(=O)sc2c1
 : 111	113

Next section; it opens with the two that closed the last part.
Each structure is followed by: PV pol inh	PV pol inh intensity
9. CCOc1ccc(NC(=O)C(C)n2c(=O)cc(C)c3c(C)nn(-c4ccccc4)c32)cc1 (stereo not given)
 : 109	114
10. Cc1ccccc1OCC(=O)Nc1ccc2[nH]c(=O)sc2c1
 : 111	113
11. O=c1[nH]c(=O)n(C2CCCCC2)c(O)c1C1=Nc2ccccc2SC(c2ccccc2)C1 (stereo not given)
 : 105	101
12. COc1ccc(C2C(=O)N(C3CCCCCC3)CC(=O)N2CCC2=CCCCC2)cc1 (stereo not given)
 : 115	115
13. Cc1ccc(NC(=O)c2c(NC(=O)Cc3ccccc3)sc3c2CCC3)cc1
 : 100	102
14. Cc1ccc(NC(=O)CC(C)S(=O)(=O)c2ccc3c(c2)NC(=O)CO3)c(C)c1 (stereo not given)
 : 110	115
15. CCCCNC(=O)C1CCC(Cn2c(=O)c3sccc3n(CC(=O)Nc3ccccc3)c2=O)CC1 (stereo not given)
 : 101	104
16. Cc1cc(OCCn2c(CCNC(=O)C3CCCCC3)nc3ccccc32)ccc1Cl
 : 106	100
17. Cc1nn(CCCC(=O)Nc2cc(C(F)(F)F)ccc2Cl)c(=O)c2c1sc1ccccc12
 : 114	113
18. O=C(Nc1cc(Cl)ccc1Cl)c1ccc2c(c1)N(Cc1cccc(Cl)c1)C(=O)c1ccccc1S2=O (stereo not given)
 : 108	99
19. CCCCSCCCNC(=O)CN1C(=O)c2cccnc2Oc2ccc(Cl)cc21
 : 109	110
20. CCn1cc(S(=O)(=O)c2cccc(C)c2)c(=O)c2cc(F)c(N3CCCCC3C)cc21 (stereo not given)
 : 107	106
21. CCC1CN(C(=O)N2CCC(C(=O)NCCc3ccc(Cl)cc3)CC2)c2ccccc2O1 (stereo not given)
 : 103	107
22. COc1ccc(NC(=O)c2c(C)oc3ccc(O)c(CN4CCC(C)CC4)c23)cc1Cl
 : 106	110
23. COc1cccc(NC(=O)CSc2cc(C)c3ccccc3n2)c1
 : 108	112
24. CCN1CCC(N(Cc2ccc(F)cc2)C(=O)Nc2ccc(C)c(F)c2)CC1
 : 117	118
25. CCc1ccccc1NC(=O)CC1Sc2ccc(C(F)(F)F)cc2NC1=O (stereo not given)
 : 105	106
26. COc1ccc(CNC(=O)CCc2nc(-c3ccc(C)cc3)no2)c(OC)c1
 : 102	101
27. Cc1cc(C)cc(-n2c(SCC(=O)Nc3ccccc3F)nc3c(oc4ccccc43)c2=O)c1
 : 103	103
28. Cc1ccc(-c2c3c(=O)n(C)c(=O)n(C)c3c3c(C)nc4ccccc4n23)cc1
 : 102	107
29. CC(=O)N1c2ccc(S(=O)(=O)NCC3CCC(C(=O)Nc4ccc(C)cc4)CC3)cc2CC1C (stereo not given)
 : 116	110
30. CCOc1ccc(CNC(=O)CCc2cn(CC)c3ccccc23)cc1
 : 108	109
31. COc1cccc(CNC(=O)c2nc(Cn3nc(C)c(Br)c3C)no2)c1
 : 97	102
32. CN(C)c1ccc(CNC(=O)c2cc3ccccn3n2)cc1
 : 101	105
33. COc1ccc(-c2nc3scc(CCNS(=O)(=O)c4ccc(F)cc4F)n3n2)cc1OC
 : 94	81
34. Cc1ccc(NS(=O)(=O)c2ccc3[nH]c4c(c3c2)CCCCC4)cc1
 : 110	111
35. CCOC(=O)c1c(C)[nH]c(CCC(=O)NCc2cccc(OC)c2)c1C
 : 108	116
36. Cc1cccc(C(=O)Nc2ccc3nc(SCCOc4ccccc4)sc3c2)c1
 : 104	103
37. CC(C)(C)c1ccc(OCC(=O)Nc2ccc(Cl)cc2C(=O)c2ccccc2)cc1
 : 104	109
38. O=C1C(c2ccc(F)cc2)N(Cc2ccccc2Cl)C(=O)CN1C1CCCCC1 (stereo not given)
 : 104	103
39. COc1ccc(C(c2c(C)n(C)n(-c3ccccc3)c2=O)c2c(C)n(C)n(-c3ccccc3)c2=O)cc1O
 : 105	110
40. COc1ccccc1-c1cc(C(=O)Nc2sc3c(c2C#N)CCCC3)no1
 : 82*	78*

Compound profiles (already shown). Order of screens: PV pol inh	PV pol inh intensity
`COc1ccc(C(c2c(C)n(C)n(-c3ccccc3)c2=O)c2c(C)n(C)n(-c3ccccc3)c2=O)cc1O` in the list: 105	110
`CN(C)c1ccc(CNC(=O)c2cc3ccccn3n2)cc1` in the list: 101	105
`Cc1cccc(C(=O)Nc2ccc3nc(SCCOc4ccccc4)sc3c2)c1` in the list: 104	103
`Cc1ccc(NS(=O)(=O)c2ccc3[nH]c4c(c3c2)CCCCC4)cc1` in the list: 110	111
`CCOC(=O)c1c(C)[nH]c(CCC(=O)NCc2cccc(OC)c2)c1C` in the list: 108	116

Later entries
Each structure is followed by: PV pol inh	PV pol inh intensity
41. CCOc1ccccc1CNC(=O)c1ccc(NC(=O)N2CC(C)Sc3ccccc32)cc1 (stereo not given)
 : 108	109
42. O=C(NCc1ccccc1Cl)c1ccc(NC(=O)N2CCSc3ccccc32)cc1
 : 110	109
43. Cc1cc(C)cc(-n2ccnc2SCC(=O)Nc2ccc(C)cc2C)c1
 : 109	97
44. Cc1cccc(Cn2cnc3c(cnn3-c3ccc(Cl)cc3)c2=O)c1
 : 113	112
45. Cc1cccc(CCNC(=O)C2CCC(CNS(=O)(=O)c3c(C)cc(C)cc3C)CC2)c1 (stereo not given)
 : 101	112
46. Cc1cccc(C)c1NC(=O)CN1C(=O)c2cccc3cccc1c23
 : 107	116
47. COc1ccc(-n2ncc3c2ncn2nc(-c4ccc(OC)c(OC)c4)nc32)cc1
 : 117	114
48. O=C(CSc1nc2c([nH]c3ccccc32)c(=O)n1-c1cccc(Cl)c1)NCc1ccccc1
 : 103	103
49. O=C(CCCCn1c(=O)c2ccccc2n(Cc2ccc(Cl)cc2)c1=O)NCc1ccccc1Cl
 : 106	107
50. N#C/C(=C\c1ccc(Cl)cc1Cl)c1nc(-c2cccc(Cl)c2)cs1
 : 107	116
51. Cc1ccc(S(=O)(=O)c2cn(CC(=O)Nc3ccc(Cl)cc3)c3ccc(F)cc3c2=O)cc1C
 : 105	108
52. Cn1nnnc1SCCCNCc1cc(Br)ccc1OCc1ccccc1F
 : 104	103
53. Cc1cccc(-c2nc3c4ccccc4n(Cc4cccc(Cl)c4)c(=O)n3n2)c1
 : 109	104
54. COc1ccc2c(c1)CCc1c(C(=O)Nc3ccc(OC)cc3OC)noc1-2
 : 102	98
55. Cc1ccc(CNC(=O)c2ccc(Cn3c(SCc4ccc(F)cc4)nc4cccnc43)cc2)o1
 : 115	118
56. COc1ccccc1NCc1cccn1-c1nnc(N2CCCCCC2)s1
 : 104	111
57. COc1ccc(NC(=O)C2CCN(S(=O)(=O)c3cc(-c4noc(C)n4)ccc3C)CC2)cc1
 : 105	103
58. CCOc1cc(/C=C(\C#N)C(=O)Nc2ccc(C)cc2)ccc1OCc1cc(=O)n2nc(CC)sc2n1
 : 104	107
59. CCc1cnc2c(c1SCC(=O)Nc1ccc(C(=O)OC)cc1)c(=O)n(C)c(=O)n2C
 : 111	116
60. CC1=C(C(=O)Nc2ccccc2)C(c2ccc(O)cc2)n2nc(-c3ccc(Cl)cc3)nc2N1 (stereo not given)
 : 101	107
61. CCn1cc(C(=O)N2CCN(c3ccccc3OC)CC2)c(=O)c2cc(S(=O)(=O)N3CCC(C)CC3)ccc21
 : 104	108
62. CCOC(=O)c1cc2c(=O)n3ccccc3nc2n(CCOC)c1=NC(=O)C(C)(C)Oc1ccc(Cl)cc1
 : 105	110
63. COc1ccc(CCNc2nc3cc(OC)c(OC)cc3c3nc(-c4cccnc4)nn23)cc1OC
 : 106	104
64. CCOc1ccc(/C=C/c2nc(C#N)c(N3CCN(CC)CC3)o2)cc1
 : 105	112
65. CCOC(=O)N1CCC(NC(=O)c2cnn(-c3cccc(C)c3)c2C2CCN(C(=O)OC(C)(C)C)CC2)CC1
 : 106	110
66. CC(=O)c1c(C)n(-c2ccc(Cl)cc2)c2ccc(OC(=O)COc3ccccc3)cc12
 : 104	109
67. COc1ccc(CCNC(=O)CCCCn2c(=O)c3ccccc3n(CC(=O)Nc3ccccc3C)c2=O)cc1OC
 : 105	99
68. Cc1c(C(=O)NCc2cccc(Cl)c2)sc2ncnc(N(C)C3CCCCC3)c12
 : 108	113
69. CN(Cc1ccccc1)S(=O)(=O)c1nnc(NC(=O)c2ccccc2)s1
 : 108	108
70. Fc1ccc(-c2cc(-c3nc(-c4ccc(Cl)cc4)no3)[nH]n2)cc1
 : 105	110

Copied from above: nos. 68–70
Each structure is followed by: PV pol inh	PV pol inh intensity
68. Cc1c(C(=O)NCc2cccc(Cl)c2)sc2ncnc(N(C)C3CCCCC3)c12
 : 108	113
69. CN(Cc1ccccc1)S(=O)(=O)c1nnc(NC(=O)c2ccccc2)s1
 : 108	108
70. Fc1ccc(-c2cc(-c3nc(-c4ccc(Cl)cc4)no3)[nH]n2)cc1
 : 105	110

Other compounds.
Each structure is followed by: PV pol inh	PV pol inh intensity
71. O=C(COc1ccccc1F)Nc1nnc(SCc2cc(=O)n3ccccc3n2)s1
 : 108	109
72. O=C(Nc1cccc(F)c1F)C1CCN(c2ncccn2)CC1
 : 108	111
73. CCCCn1c(SCc2ccccc2C#N)nc2c(sc3ccccc32)c1=O
 : 105	108
74. CC(CNC(=O)CCc1cn(Cc2ccccc2Cl)c2ccccc12)c1ccccc1 (stereo not given)
 : 107	112
75. Cc1oc(-c2ccc(Cl)cc2)nc1Cn1c(=O)cc(C)c2c(C)nn(-c3cccc(F)c3)c21
 : 106	110
76. COC(=O)c1cc2sccc2n1CC(=O)Nc1cc(Cl)ccc1OC
 : 108	106
77. CCc1ccc(-n2nc(C)c3c(C)cc(=O)n(CC(=O)N(CC)Cc4ccccc4)c32)cc1
 : 111	112
78. CCOc1cc(C2c3c(oc4ccccc4c3=O)C(=O)N2Cc2ccc3c(c2)OCO3)ccc1O (stereo not given)
 : 110	110
79. Cc1ccc2sc(N3CCN(C(=O)C4COc5ccccc5O4)CC3)nc2c1C (stereo not given)
 : 112	103
80. COc1ccc(C(=O)O)cc1Nc1nc2ccc(C)cc2n2cnnc12
 : 107	104
81. CC1Cc2ccccc2N1S(=O)(=O)c1nnc(NC(=O)c2ccccc2)s1 (stereo not given)
 : 116	115
82. O=C(CSc1cn(CC(=O)N2CCCCCC2)c2ccccc12)Nc1ccccc1F
 : 106	110
83. COc1ccccc1Nc1nc2ccc(Cl)cc2nc1-n1nc(C)cc1C
 : 109	110
84. O=C(CSc1ncc2c(n1)-c1ccc(Cl)cc1N(Cc1ccccc1)S2(=O)=O)Nc1ccccc1C(F)(F)F
 : 109	122
85. COCCCNC(=O)c1ccc(Cn2c(=O)c3cccn3c3cccnc32)cc1
 : 111	109
86. CCC1CN(CC(=O)NCc2cccc(Br)c2)c2ccccc2S1 (stereo not given)
 : 113	110
87. O=C(CSc1nc2cc3ccccc3cc2[nH]1)Nc1ccc(F)cc1
 : 104	106
88. CCn1c(SCC(=O)c2ccc([N+](=O)[O-])cc2)nnc1-c1ccc(Cl)cc1
 : 108	110
89. CC1CCc2c(sc3nnn(Cc4ccc(F)cc4)c(=O)c23)C1 (stereo not given)
 : 106	109
90. Cc1ccsc1CN(C(=O)COc1ccc(Cl)cc1)C1CCS(=O)(=O)C1 (stereo not given)
 : 125	119
91. COc1cccc(NC(CNS(=O)(=O)c2ccc(Cl)cc2)c2ccccc2)c1 (stereo not given)
 : 113	103
92. CCC(=O)N1CCc2cc(S(=O)(=O)NC(C(=O)NCCc3ccc(OC)c(OC)c3)C(C)C)ccc21 (stereo not given)
 : 100	97
93. Cc1ccc(CN(C(=O)COc2ccc(Cl)cc2Cl)C2CCS(=O)(=O)C2)o1 (stereo not given)
 : 114	115
94. N#Cc1c(NC(=O)CS(=O)(=O)c2ccc(Cl)cc2)sc2c1CCCCC2
 : 100	102
95. CCN(CC)CCNC(=O)c1cn(CC)c2ccc(S(=O)(=O)N3CCc4ccccc4C3)cc2c1=O
 : 107	110
96. Cc1ccc(CNc2nc3ccccc3n3cnnc23)cc1
 : 101	107
97. CC(C)c1ccccc1NC(=O)CN(c1ccccc1)S(=O)(=O)N(C)C
 : 105	102
98. CCOc1ccc(CCNC(=O)c2ccc(-c3nc(COc4ccc(C)cc4)c(C)o3)cc2)cc1
 : 105	108
99. O=C(Nc1cccnc1Cl)c1cc(-c2ccc(Cl)cc2)on1
 : 109	114
100. Cc1noc2ncnc(N3CCN(c4ccccc4F)CC3)c12
 : 103	102
101. O=S(=O)(c1ccccc1)n1nc(-c2ccc(Cl)cc2)nc1NCc1ccc(F)cc1
 : 108	110

Some of the compounds tested; the hit share may differ from the screen's.
